Source: PubChem
HSD17B inh: HSD17B dehydrogenase inhibition. recombinant HSD17B10, NADH fluorescence kinetic; many of its hits are not listed in these tables. Potency, µM (titrated, usually from 57.1 µM), for the others: top-dose activity change, negative = inhibition, hits mostly inhibitors. hit rate 7.6% among 75,000. AID 893; active means well fitted inhibition curve with a large enough effect; inconclusive means small, poorly fitted or top-dose-only effect; inactive means no such curve, though single readings can be large or run the other way;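 further: the protocol describes HADH2 (HSD17B10) and not the HSD17B4 of the title; nearly all actives have a fitted effect of over 70% in size; most hits overshoot -100% by far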
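Enzyme plus compound, 15 min room temperature; substrate mix added (NAD+ 1 mM, beta-hydroxybutyryl-CoA 90 uM final); plates read kinetically for NADH fluorescence. HADH2 was His-tagged, E. coli-derived, 20 nM.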
* hit, by the source's call; ? = inconclusive; [ ] = dose if it differs, or a comment. On the % scale 0 is the no-effect control and ±100 the full control effect; potency means the concentration at half of the fitted maximal effect.

Molecule,HSD17B inh
CCc1nn2c(=O)cc(CSc3nc4sc5c(c4c(=O)n3C)CCCC5)nc2s1,-19.9%
C=C(C)c1ccc(C(C)(C)NC(=O)NCc2ccco2)cc1,4.6%
COc1ccc(C(O)c2nc3ccccc3s2)cc1 (stereo unspecified),3.6%
Cc1scc(C(=O)N2CCN(S(C)(=O)=O)CC2)c1-c1ccccc1,10.8%
CC(C)(C)NC(=O)Cn1nnnc1-c1nonc1N,-13.4%
COc1ccc(N(CC(=O)NCc2ccco2)S(C)(=O)=O)cc1Cl,2.2%
C1CCC(Nc2nnnn2C2CCCCC2)CC1,3.5%
CCCCCCS(=O)[C@H]1CS(=O)(=O)C[C@@H]1S(=O)CCCCCC (stereo partly specified),-27.7%
Cc1ccc(-c2nc(CS(=O)CC(=O)NCc3ccccc3)c(C)o2)cc1 (stereo unspecified),-4.8%
O=C(c1ccccc1)N1CCN(S(=O)(=O)N2CCCCC2)CC1,6.4%
CCCn1cc(SCC(N)=O)c2ccccc21,4.5%
COc1cc2ncnc(Nc3cccc(Br)c3)c2cc1OC,-18.5%
O=C(CCNC(=O)c1ccc(Br)o1)NC1CCCC1,10.3%
COc1ccc(CNc2ncncc2-c2ccc(C(=O)N(C)C)cc2)c(OC)c1,-3.9%
O=C(CSc1nnc(-c2ccncc2)n1C1CCCCC1)Nc1cccc(O)c1,2.6%
O=C(c1cc(S(=O)(=O)N2CCOCC2)ccc1F)N1CCCc2ccccc21,8.6%
CCC(Sc1ccc2nnc(-c3cccnc3)n2n1)C(=O)O (stereo unspecified),?
Cc1cc2c(=O)[nH]c(N)nc2nc1C,-3.5%[11.4 µM]
COCC(=O)N1CCC[C@@]2(CCN(C(c3ccccc3)c3ccccc3)C2)C1,4.5%
CN(C)c1ccccc1C(=O)c1ccccc1N(C)C,-13.1%
Cc1ccccc1-c1nc(CN2CCC(C(=O)N3CCC(C(N)=O)CC3)CC2)c(C)o1,4.3%
CCOC(=O)CSc1nnc2c(n1)C1(C)CCC2C1(C)C (stereo unspecified),-3.6%
CCOC(=O)c1cc(C)[nH]c(=S)c1C#N,?
CC(=O)c1cccc(NC(=O)c2ccncc2)c1,-9.2%
CCCCCCCCCCCCCCCC(=O)NCCO,-9.7%
c1ccc2c(c1)Cc1cc3ccccc3nc1-2,25.1µM*
CC1(C)OC2C[C@](O)(C(N)=O)C[C@H](O)[C@H]2O1 (stereo partly specified),6.0%
O=C(c1ccc(COc2ccc3c(c2)CCC3)o1)N1CCN(c2ccccc2)CC1,-9.6%
Clc1ccc(C2CC(c3ccccc3)Nc3ncnn32)cc1 (stereo unspecified),-2.4%
CC(=O)Oc1ccc(C(=O)O)cc1OC(C)=O,5.4%
CN(C)c1ccc(CNC(=O)[C@@]2(C)C=C[C@@H](Cc3ccccc3)N2C)cc1,?
COc1ccc(C2Oc3cc(OC)cc(OC)c3CC2O)cc1 (stereo unspecified),-8.1%
CC1CN(C(=O)N[C@@H](Cc2ccccc2)C(=O)O)CC(C)O1 (stereo partly specified),-4.5%
OC(COc1ccc(OCc2ccccc2)cc1)CN1CCCCC1 (stereo unspecified),?
O/N=C/c1cccn1-c1ccc(O)cc1,-6.0%
CCOc1ccc(OCCSc2nnnn2C2CCCCC2)cc1,-13.7%
CN(C)c1ccc(NC(=O)CN2C(=O)CC(c3ccccc3)=Nc3ccccc32)cc1,10.3%
CCOC(=O)CSc1nnc(-c2ccc(S(=O)(=O)N3CCOCC3)cc2)n1-c1ccccc1,20µM*
COC(=O)c1nnn(-c2nonc2N)c1CSCCO,0.6%
CN(CP(=O)(O)CN(C)S(C)(=O)=O)S(C)(=O)=O,13.0%
O=C(CCn1nc(-c2ccccc2)ccc1=O)N1CCCC1,-12.3%
CC(C)N(Cc1nc(-c2ccccc2)no1)C(=O)CN(C)S(=O)(=O)c1ccccc1,2.0%
CC(C)(C)C(=O)CCN1C(=O)C2(OCCO2)c2ccccc21,-5.7%
CCN(CC)C(=O)C1CCN(Cc2cccc(OCc3ccccc3)c2)CC1,-4.9%
NC(=O)C1(N2CCCCC2)CCN(C2CC(=O)N(Cc3cccs3)C2=O)CC1 (stereo unspecified),0.5%
O=C(CN1C(=O)COc2ccccc21)NCc1ccc(C(=O)O)cc1,3.3%
O=C(CCCNS(=O)(=O)c1cccc2nsnc12)NCc1ccc(Cl)cc1,-0.9%
O=C1NC2=C(C(=O)c3ccccc32)C(c2ccccc2)N1 (stereo unspecified),2.4%
CC(C)NC[C@H](O)c1ccc2ccccc2c1,-1.2%
N#Cc1ccccc1NC(=O)CSc1nccn1CCc1ccccc1,4.6%
CC(NC(=O)c1ccco1)c1ccc2c(c1)OCCO2 (stereo unspecified),14.5%
CC(=O)c1cc(OC(=O)c2ccncc2)ccc1OC(=O)c1ccncc1,9.9%
O=C(NCCCNC(=O)C(F)(F)C(F)F)C(F)(F)C(F)F,-2.5%
O=c1[nH]cnc2scc(-c3ccc(F)cc3)c12,-0.9%
COCCN1Cc2cccc(C(=O)Nc3cc(C)cc(C)c3)c2C1=O,31.6µM*
Cc1cc(C)cc([N+](=O)[O-])c1,0.6%
COC(=O)N1CCC2(CC1)CN(C(=O)Nc1cccc(C#N)c1)C2,7.9%
N#CCc1c(C#N)c(N)nc(N2CCN(S(=O)(=O)c3ccccc3)CC2)c1C#N,25.1µM*
C[C@H](NC(=O)NCc1cccs1)C(=O)O,6.9%
COC(=O)c1c(N2C(=O)CCC2=O)sc2c1CCCC2,3.7%

Grouped by structure: those above containing a cyano group
Molecule,HSD17B inh
CCOC(=O)c1cc(C)[nH]c(=S)c1C#N,?
N#Cc1ccccc1NC(=O)CSc1nccn1CCc1ccccc1,4.6%
COC(=O)N1CCC2(CC1)CN(C(=O)Nc1cccc(C#N)c1)C2,7.9%
N#CCc1c(C#N)c(N)nc(N2CCN(S(=O)(=O)c3ccccc3)CC2)c1C#N,25.1µM*

Quoted from the results shown (2 entries):
Molecule,HSD17B inh
O=C(CCn1nc(-c2ccccc2)ccc1=O)N1CCCC1,-12.3%
CC(C)N(Cc1nc(-c2ccccc2)no1)C(=O)CN(C)S(=O)(=O)c1ccccc1,2.0%

(cont.)
smiles	HSD17B inh
CCOC(=O)c1cnn(-c2ccccc2)c1NC(=O)c1cccs1	2.2%
C=C[C@](C)(O)CCC1C(=C)CC(O)C2C(C)(C)CCCC12C (stereo partly specified)	-4.5%
c1ccc(-n2ncc3c(NCCCN4CCOCC4)ncnc32)cc1	?
N#Cc1nc(COc2ccc(-c3ccccc3)cc2)oc1NCCCN1CCOCC1	-12.4%
O=C(NCc1ccc2c(c1)OCO2)c1c(O)c2cccc3c2n(c1=O)CCC3	?
CC(=O)Nc1ccc(S(=O)(=O)n2cnc3cc(C)c(C)cc32)cc1	-3.5%
O=C(CCn1c(=O)c2ccccc2n(Cc2cc(=O)n3ccccc3n2)c1=O)NCc1ccco1	?
COCCn1c(=O)c(C)nc2cnc(Oc3cccc(Cl)c3)nc21	?
CCc1c(C)nc2cc(-c3ccc(OC)c(OC)c3)nn2c1N1CCCC1	-6.7%
CC(=O)N1CC2(C)CN(C(C)=O)CC(C)(C1)C2	3.5%
O=C(Nc1ccc(N2CCOCC2)c(Cl)c1)c1ccco1	-2.3%
CC(=O)Nc1ccc(S(=O)(=O)N2CCN(c3cc(C)ccc3C)CC2)cc1	-7.5%
Cc1nn(-c2ccccc2)c(C)c1NC(=O)Cc1cccs1	-12.7%
CCOc1ccccc1Nc1ccc(C(=O)O)cc1NC(C)=O	-13.2%
c1ccc(-c2csc(-n3cnnn3)n2)cc1	?
Cc1nnsc1C(=O)Nc1ccccc1Cl	-2.4%
COc1ccc(-n2nnnc2SCC(=O)c2ccc(O)c(O)c2)cc1	2.3%
Cc1nn(CC(=O)Nc2ccc(C(=O)N(C)C)cc2)c(=O)c2ccccc12	13.7%
CC(=O)N[C@@H]1C(O)OC(CO)C(O)C1O (stereo partly specified)	0.8%
CCCOc1ccc(N2CC(C(=O)Nc3ccccc3F)CC2=O)cc1 (stereo unspecified)	9.3%
O=C(NCC1CCCO1)c1ccc2nc(N3CCCCC3)sc2c1 (stereo unspecified)	-3.3%
Cc1cc(C)c2c(=O)[nH]c(=O)n(Cc3ccccc3)c2n1	-12.1%
Cc1ccc(C(C(=O)NCc2ccc(F)cc2)N(C(=O)c2csnn2)C2CC2)o1 (stereo unspecified)	10.0%
COc1ccc(C(=O)N2CCN(c3c(C)cccc3C)CC2)cc1OC	-2.9%
CN1CC(=O)N(CC(=O)Nc2ccc(Cl)c(C(F)(F)F)c2)C1=O	-2.4%
CCOC(=O)N1CCN(C(=O)c2cn(C)c(=O)c3c2c2ccccc2n3C)CC1	25.1µM*
CCc1nnc2c3cnn(-c4ccccc4)c3ncn12	3.1%
CC1(C)CC(=O)CC(=Nc2ccc(C(=O)O)cc2)C1	-10.1%
Cc1ccccc1Cn1cc(S(=O)(=O)CC(=O)N2CCCCC2)c2ccccc21	10.9%
CCCCNC(=O)c1cccc(C(=O)NCCCC)c1	4.7%
O=C1Nc2ccccc2C12Nc1ccccc1S2 (stereo unspecified)	-3.4%
Cc1c(NC(=O)c2noc3c2CCc2ccccc2-3)c(=O)n(-c2ccccc2)n1C	3.5%
O=C(CSc1nnc(-c2ccco2)n1CC1CCCO1)N1CCCCC1 (stereo unspecified)	-1.2%
COc1cccc(-c2cc(C(F)(F)F)nc(N3CCN(c4ccccc4)CC3)n2)c1	-5.1%
CCCCOC(=O)c1cccc(NC(=O)CC)c1	6.8%
COc1cc(NC(=O)CN2C(=O)NC(C)(CC(C)C)C2=O)cc(OC)c1 (stereo unspecified)	-2.1%
COC(=O)c1ccc(Cn2nnc3ccccc3c2=O)o1	7.1%
Cc1ccc2oc(=O)c3cnn(CC(=O)N4CCCCCC4)c3c2c1	4.1%
CCOC(=O)N1CCN(C(=O)c2cn(CC)c3ccc(S(=O)(=O)N4CCCC4)cc3c2=O)CC1	2.7%
O=S(=O)(N1CCCCC1)N1CCN(c2ccc(F)cc2)CC1	3.0%
CCCOc1cccc(NC(=O)c2cc(C)oc2C)c1	-6.5%
CCCS(=O)(=O)N1CCN(CCCc2ccccc2)CC1	10.2%
COC(=O)[C@@]1(Cc2ccc(OC)cc2)[C@H]2c3cc(C(=O)N4CCCC4)n(CCN4CCOCC4)c3C[C@H]2CN1C(=O)c1ccccc1	11.1%
CC(=O)c1ccc(N2CCN(C(=O)c3cc4c(-c5ccccc5F)nn(C)c4s3)CC2)cc1	?
Cc1cc2ccccc2cc1CN1CCOCC1	3.0%

Structural class: the entries above with bromine (two)
smiles	HSD17B inh
COc1cc2ncnc(Nc3cccc(Br)c3)c2cc1OC	-18.5%
O=C(CCNC(=O)c1ccc(Br)o1)NC1CCCC1	10.3%

Remaining list, next part:
smiles	HSD17B inh
O=C(c1ccc2c(c1)OCO2)N1CCCC(c2ccccc2)C1 (stereo unspecified)	1.7%
Cc1nc2ccccc2nc1-c1ccc(N=[N+]([O-])c2ccc(-c3nc4ccccc4nc3C)cc2)cc1	5.6%[11.4 µM]
O=C(O)CCCn1nc(-c2ccccc2)c2ccccc21	?
CC(=O)NCC(=O)OCC(=O)Nc1ccc(C(C)=O)cc1	9.3%
CCC(NS(=O)(=O)c1ccc(C)cc1)C(=O)N1CCC2(O)CCCCC2C1 (stereo unspecified)	3.6%
COc1cccc(-n2c(SCC(=O)Nc3cc(C)on3)nc3c([nH]c4ccccc43)c2=O)c1	?
O=C1c2ccccc2C(=O)N1CCn1nc(Cl)nc1Cl	3.1%
CC1CCN(c2c(NCc3ccc(C(=O)NCC4COc5ccccc5O4)cc3)c(=O)c2=O)CC1 (stereo unspecified)	1.7%
Cc1ccc(NC(=O)c2cc(NC(=O)C3CC=CCC3C(=O)O)ccc2N2CCOCC2)cc1 (stereo unspecified)	9.9%
O=C(c1ccco1)n1nc(NCc2ccccc2)nc1NCc1ccccc1	21.6%
COCC(C)n1c(C)cc(C(=O)CSc2nc3ccccc3c(=O)[nH]2)c1C (stereo unspecified)	-1.0%
Nc1ncnc2c1cnn2-c1ccccc1	25.1µM*
Cc1onc(-c2ccccc2)c1C(=O)NCc1cccnc1	5.4%
Cc1ccccc1CSc1nncn1N	2.9%
O=C(NCc1ccc2c(c1)OCO2)C1CCN(c2ccc(S(=O)(=O)N3CCCC3)cc2)CC1	?

Ordered by length of the SMILES (lowest first): five of the compounds above.
smiles	HSD17B inh
O=C(O)CCCn1nc(-c2ccccc2)c2ccccc21	?
Cc1onc(-c2ccccc2)c1C(=O)NCc1cccnc1	5.4%
O=C(c1ccc2c(c1)OCO2)N1CCCC(c2ccccc2)C1 (stereo unspecified)	1.7%
CCC(NS(=O)(=O)c1ccc(C)cc1)C(=O)N1CCC2(O)CCCCC2C1 (stereo unspecified)	3.6%
Cc1ccc(NC(=O)c2cc(NC(=O)C3CC=CCC3C(=O)O)ccc2N2CCOCC2)cc1 (stereo unspecified)	9.9%

Other results follow.
smiles	HSD17B inh
CCCc1ccc(OCCNC(C)=O)cc1	8.7%
COc1ccc(CCCO[C@@H](Cn2ccnc2)c2ccc(OC)cc2)cc1	?
CC1=C(C(=O)N2CCOCC2)C(c2ccsc2)C2=C(CCCC2=O)N1 (stereo unspecified)	25.1µM*
CN(C(=O)c1ccc(S(=O)(=O)NC2CCCC2)cc1)C1CCCCC1	11.2%
COc1ccccc1OCCCn1c(=O)oc2ccccc21	3.9%
COc1ccccc1N1CCN(C(=O)c2c(-c3c(Cl)cccc3Cl)noc2C)CC1	3.3%
Cn1c(=O)oc2cc(S(=O)(=O)Nc3ccc4c(c3)OCCO4)ccc21	-2.0%
COc1ccc2[nH]c3c(=O)n(CCCCC(=O)NCCN4CCCC4)c(=S)[nH]c3c2c1	25.1µM*

An excerpt; rates above refer to the full screens.
